PINK1 expr mod = modulators of PINK1 expression | AID 624263 | PINK1 immunofluorescence, high-content cytometry, 24 h | hit rate 0.2% among 410,000 | Potency, µM (titrated, usually from 76.6 µM), without a hit: top-dose activation (PINK1 increase), hits mostly activators; active = well fitted activation curve with a large enough effect; inconclusive = small, poorly fitted or top-dose-only effect; inactive = flat fitted curve, though single readings scatter; cell line not stated here;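 note: potency is the fitted concentration of half-maximal effect; % of control where 0% means no effect; nearly all actives have a fitted effect of over 65% in size; a mitochondrial uncoupler was the plate control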
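PINK1 protein level read as immunofluorescence by microplate cytometer in a fixed, stained stable cell line after 24 h exposure to five compound concentrations, with CCCP as control.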
D2 agonist = human D2 receptor agonism in beta-arrestin assay | P14416 | DiscoveRx PathHunter D2 beta-arrestin, luminescence, 90 min; 100% = 57 uM dopamine signal | activation, % (concentration not given with the values) | hit rate 0.084% among 360,000; in the data active = activation above about 40%; inconclusive = about 15% to 40%; inactive = below about 15%; note: compound concentration not given in the record; the text of the record calls up to 30% inactive
Target sequence (P14416 whole entry, looked up): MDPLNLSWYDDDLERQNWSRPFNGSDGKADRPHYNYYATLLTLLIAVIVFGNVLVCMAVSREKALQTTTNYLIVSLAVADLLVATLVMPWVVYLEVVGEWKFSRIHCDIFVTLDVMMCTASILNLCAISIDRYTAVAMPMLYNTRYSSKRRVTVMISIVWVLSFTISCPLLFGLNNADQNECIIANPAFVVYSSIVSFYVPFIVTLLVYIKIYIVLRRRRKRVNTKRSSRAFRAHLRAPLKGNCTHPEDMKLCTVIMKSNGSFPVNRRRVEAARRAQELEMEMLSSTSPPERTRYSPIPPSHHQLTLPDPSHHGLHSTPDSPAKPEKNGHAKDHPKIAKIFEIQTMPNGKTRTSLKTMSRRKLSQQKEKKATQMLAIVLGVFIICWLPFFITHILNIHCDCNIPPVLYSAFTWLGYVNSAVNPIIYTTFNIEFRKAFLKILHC
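Agonist mode: compounds alone added to overnight-plated D2 PathHunter cells for 90 min at 37 C, with 57 uM final dopamine (EC100) defining full response. Beta-arrestin recruitment detected by chemiluminescent reagent, read after 1 h at ambient temperature.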
D2 PAM = potentiates the human D2 dopamine receptor allosterically. DiscoveRx D2 beta-arrestin cells, luminescence, 90 min; 100% = 57 uM dopamine signal. P14416. potentiation, % (concentration not given with the values). hit rate 0.23% among 360,000. AID 624464; active = potentiation of 50% or more; inconclusive = 30% to 50%; inactive = 30% or less;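 note: compound concentration not given in the record; tested on top of an EC20 dose of dopamine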
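PathHunter D2 cells, attached overnight at 37 deg C, received compound in DMSO plus dopamine at EC20 (50 nM final) for 90 min at 37 deg C. Beta-arrestin recruitment was read as luminescence after 1 h with detection reagent at ambient temperature.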
TRPML1 ag = agonists of human TRPML1 channel | TRPML1-expressing cells, Ca2+ dye fluorescence, FDSS; host cell line not named in the record; reference of the full effect not given here | activation, % (test concentration not listed) | hit rate 0.12% among 410,000 | AID 624414; in the data active = activation above about 50%; inconclusive = about 30% to 50%; inactive = below about 30%; note: 0% is about no effect; the text of the record puts the active cut at 80%
Target sequence (Q9GZU1 whole entry, looked up): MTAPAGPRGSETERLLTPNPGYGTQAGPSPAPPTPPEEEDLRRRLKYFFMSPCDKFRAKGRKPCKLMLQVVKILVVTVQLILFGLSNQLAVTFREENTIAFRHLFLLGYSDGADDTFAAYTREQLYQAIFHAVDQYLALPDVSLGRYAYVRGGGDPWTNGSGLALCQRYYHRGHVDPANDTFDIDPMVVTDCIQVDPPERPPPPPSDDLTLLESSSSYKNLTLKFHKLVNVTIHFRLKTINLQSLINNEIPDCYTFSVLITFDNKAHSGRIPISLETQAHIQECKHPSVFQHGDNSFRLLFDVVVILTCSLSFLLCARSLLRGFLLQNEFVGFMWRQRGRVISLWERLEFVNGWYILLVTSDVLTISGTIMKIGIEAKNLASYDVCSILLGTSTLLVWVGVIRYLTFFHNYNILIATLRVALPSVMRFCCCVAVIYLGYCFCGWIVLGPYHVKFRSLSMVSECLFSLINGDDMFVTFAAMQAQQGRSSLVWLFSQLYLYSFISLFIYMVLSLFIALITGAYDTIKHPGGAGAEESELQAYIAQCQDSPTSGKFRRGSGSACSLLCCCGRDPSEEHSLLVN
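Tetracycline-induced TRPML1-DL cells are seeded and incubated overnight before loading with a no-wash Ca2+ dye and quencher. Agonist activity is taken from the 110 s fluorescence read following compound pin-transfer on an FDSS, before EC80 54-4 challenge.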
TRPML1 blocker = inhibitors of human TRPML1 channel. Q9GZU1. TRPML1-inducible cells, Ca2+ dye fluorescence, FDSS; hits give low values; inhibition of EC80 agonist-evoked calcium signal. activity change, negative = inhibition, % (test concentration not listed). hit rate 0.02% among 390,000. AID 624415; in the data active means activity change below about -50%; inconclusive means about -30% to -50%; inactive means above about -30%;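 note: stimulus is agonist 54-4 at its EC80 concentration; % is set by controls: 0 for no effect and ±100 for the full control effect; compound concentration not given in the record; the text of the record puts the active cut at -80%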
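Calcium fluorescence in TRPML1-DL cells induced overnight with Tet: a 110 s read after compound pin addition, then a 110 s antagonist read after challenge with 54-4 at 4 uM final (EC80).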
Six1-Eya2 inh = blocks human Six1 binding to Eya2; Q15475+O00167; AlphaScreen GST-Six1/His-Eya2 binding, biochemical; hits give low values; control for the full effect not named in the record; activity change, % (no concentration beside the values); hit rate 0.56% among 360,000; in the data active = activity change below about -65%; inconclusive = about -30% to -65%; inactive = above about -30%; note: % is set by controls: 0 for no effect and ±100 for the full control effect; compound concentration not given in the record
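AlphaScreen with GST-Six1 and His-Eya2 (5X mix: 250 nM and 500 nM), glutathione donor and nickel acceptor beads; buffer 50 mM Tris pH 8.0, 300 mM NaCl, 1 mM TCEP; 1 h at 37 C in the dark.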
An asterisk follows results filed as active; ? = inconclusive; . = no result given; & = joins results of further samples; [ ] = remark or other dose.

Compound,PINK1 expr mod,D2 agonist,D2 PAM,TRPML1 ag,TRPML1 blocker,Six1-Eya2 inh
O=C(c1cccnc1)N1N=C(C2CC2)CC1(O)C(F)(F)F (configuration not stated),-1.1%,-3.1,-5,0.4,11,0
CCn1c(O)c(C=Nc2ccccc2)sc1=S,19%,0.2,2,-0.1,-7,4
COc1ccccc1CNC(=O)CCCCn1c(=O)c2ccccc2n(Cc2ccccc2C)c1=O,3.7%,.,.,2.2,0,.
O=C(COC(=O)C1(c2ccccc2F)CCCC1)N1CCOCC1,6.7%,-2.9,-2,-0.8,5,3
COc1cc(C(CCN2CCOCC2)c2c(OC)cc(OC)c3c2OC(=O)CC3c2ccc(N(C)C)cc2)cc(OC)c1OC (configuration not stated),1.5%,3.0,-10,0.9&0.3,9&-11,?
CC1=C(C(=O)Nc2ccccc2)C2(CCCCC2)C(C(N)=O)C(=S)N1 (configuration not stated),8.2%,-4.4,-7,-0.3,3,-4
Cn1c(CNc2nc3ccccc3n2C)nc2ccccc21,1.7%,-3.4,-35,-0.2,14,4
COC(=O)c1ccccc1NC(=O)CN(C)S(=O)(=O)c1ccc(OC)cc1,-0.5%[38.3 µM],1.7,0,6.7,16,5
O=C1Nc2ccccc2/C1=N\N=C\c1ccc(O)c(O)c1,-3.4%,-4.2,-2,1.6,10,-10
COc1ccc(-n2[nH]c(C)cc2=O)cc1,-0.3%,-2.1,-25,-1.2,-14,-1
CCOC(=O)c1cccc(N2C(=O)C3C4C=CC(CC4)C3C2=O)c1 (configuration not stated),3.3%,-3.6,-5,1.9,1,3
COCCN1CCN(C(=O)c2cc(COc3ccc(F)c(F)c3)on2)CC1,?,1.7,-4,0.5,-5,10
O=c1oc2cc(OCc3c(F)cccc3Cl)ccc2cc1-c1ccccn1,5.1%,-0.8,-1,-0.7,0,16
C=CCn1c(COc2cccc(C)c2C)nnc1SCC(=O)N1CCN(c2ccccc2)CC1,-1.7%,-2.5,-15,4.0,-3,-10
COc1ccc(CCNC(=O)c2nc(-c3cccs3)no2)cc1OC,-1.3%,-1.5,-7,1.4,-6,-8
COC(=O)c1ccccc1NC(=O)Nc1cc(C)ccn1,-1.0%,-1.3,-10,0.3,-6,4
CCN1CCN(CC(O)COc2ccc3c(C)cc(=O)oc3c2)CC1 (configuration not stated),0.1%,-5.6,-2,0.0,5,-6
COc1ccc(CCNC(=O)CC(=O)NCCc2ccc(OC)cc2)cc1,-2.7%,-0.8,2,-0.9,-20,6
COc1ccc(-c2cn3nc(C)c(C)nc3n2)cc1OC,1.2%,5.0,3,3.5,-3,-1
CCOC(=O)Cn1c2[n+](c3ccccc31)CC(O)CS2 (configuration not stated),.,1.2,12,0.9,0,7
CC(C)CN(C(=O)C1CSC2(C)CCC(=O)N12)c1c(N)n(Cc2ccccc2)c(=O)[nH]c1=O (configuration not stated),-1.2%,2.0,2,-0.4,0,2
CC1(Cc2cccc(F)c2)C(=O)Nc2ccc(OC(F)(F)F)cc21 (configuration not stated),3.8%,1.3,1,2.7,.,1
O=C(CN1C(=O)NC2(CCc3ccccc32)C1=O)NCc1cccc(C(F)(F)F)c1 (configuration not stated),0.0%,5.4,2,-0.2,1,4
COc1ccc(CNC(=O)c2[nH]c(C(F)(F)F)nc2-c2ccccc2)cc1OC,1.5%,-2.3,-2,0.1,.,-11
CCOc1ccc(C(C)=O)cc1CSc1nnc(-c2ccncc2)n1CCOC,-0.8%,0.3,1,-0.5,-3,2
COC(=O)/C=C/c1ccc(OC(=O)OC)c(OC(=O)OC)c1,1.3%,7.4,10,0.1,-3,3
Cc1ccc(NC2(c3nnnn3-c3c(C)cccc3C)CCCCC2)cc1,6.5%,-0.3,-5,5.9,7,-2
CCOC(=O)c1cccc(NC(=O)c2cc3c(Cl)nc4ccc(C)cc4c3s2)c1,0.1%,.,.,0.4,1,.
CCOC(=O)[C@H]1[C@H]2COc3ccc(C)cc3[C@@H]2N2C(=O)c3cc(Cl)ccc3NC(=O)[C@@]12C,3.6%,-0.8,-12,0.3,-9,-11
O=C1[C@H]2[C@@H](c3ccc(C(F)(F)F)cc3)N[C@]3(CCCN(Cc4ccc(F)cc4)C3=O)[C@H]2C(=O)N1Cc1ccccc1,3.0%,0.8,.,.,.,-1
COC(=O)CSc1ccnc2cc(Cl)ccc12,0.6%,4.0,-5,0.8,4,0
O=C(NC(c1ccc(-c2ccccc2)cc1)c1cnccn1)C1CCN(Cc2cccc(C(F)(F)F)c2)CC1 (configuration not stated),4.3%,4.0,-12,1.3,.,-11
CCc1ccccc1NC(=O)c1ccc2c(c1)nnn2C1CCCC1,3.9%,.,.,-1.0,-3,.
Fc1ccc(C2N(c3ccccc3)C(=S)N3CCCN23)cc1 (configuration not stated),-0.6%,-2.1,-5,3.0,-10,1
CCCCN(CCCC)CC(O)COc1ccccc1C(=O)Nc1ccccc1 (configuration not stated),8.5%,3.4,-16,-1.0,-4,7
CC(CNc1ccccc1O)C(=O)O (configuration not stated),0.7%,?,68*,0.9,15,-28
Cc1ccc2c(c1)-c1c(cnn1CC(=O)N(CCC#N)c1ccccc1)CO2,-3.4%,-2.1,0,0.7,-5,3
Cc1cc(OC(=O)c2cccs2)ccc1C(C)C,?,-5.2,-5,-0.4,-15,45
CCN(CC)c1ccc(NC(=O)CN2CCN(CC(=O)Nc3ccccc3OC)CC2)cc1,4.5%&-5.0%,-6.3,-5,-0.6&0.5,11&-3,-21
Cc1c(NC(=O)/C(C#N)=C/c2cccs2)c(=O)n(-c2ccccc2)n1C,1.5%,0.9,-4,0.4,-21,-1
CCc1ccc(NC(=O)C(=O)c2ccccc2NC(C)=O)cc1,7.7%,-0.1,-2,-0.1,-6,4
S=C1N(c2ccccc2)CN(CCN2CCOCC2)CN1c1ccccc1,-0.1%,-2.1,-10,1.3,-7,0
COc1cc(/C=C2/SC(=S)N(CC(=O)O)C2=O)ccc1OC(=O)c1ccco1,1.5%,-4.6,-10,-0.3,-8,-19
Cc1ccc(C)c2sc(NC(=O)C3CC3)nc12,3.8%,-1.8,-13,0.5,5,0
CCn1c(=O)c2cc(C(=O)N(C)c3ccccc3F)sc2c2ccccc21,-1.8%,6.1,-9,0.0,-17,1
Cc1ccc(C)c(OCc2nnc(SCC(=O)NC(=O)NCc3ccco3)o2)c1,0.0%,-5.1,-8,-0.7,12,-3
c1ccc2c(c1)nc(N1CCOCC1)c1ccccc12,0.4%,1.3,-4,-0.3,-5,1
COC(=O)c1cnn(-c2ccccc2)c1-n1cccc1C=O,-0.2%,-3.8,-6,-0.5,-4,10

Next part; it opens with the 2 that closed the last part.
Compound,PINK1 expr mod,D2 agonist,D2 PAM,TRPML1 ag,TRPML1 blocker,Six1-Eya2 inh
c1ccc2c(c1)nc(N1CCOCC1)c1ccccc12,0.4%,1.3,-4,-0.3,-5,1
COC(=O)c1cnn(-c2ccccc2)c1-n1cccc1C=O,-0.2%,-3.8,-6,-0.5,-4,10
CC(=O)NC(Cc1c[nH]c2ccccc12)C(=O)Nc1ccc2c(c1)OCO2 (configuration not stated),-1.2%,-0.4,-7,0.5,-12,-8
O=S(=O)(/N=S1/CC=CCN1S(=O)(=O)c1ccccc1)c1ccccc1 (configuration not stated),-0.1%,-3.6,-17,9.4,-13,6
O=c1[nH]c(C2CCN(S(=O)(=O)/C=C/c3ccccc3)CC2)nc2c1nnn2Cc1ccccc1,2.1%,0.2,-1,0.0,-11,-13
Cn1c(N)c(C(=O)COC(=O)C2(c3ccc(F)cc3)CCCC2)c(=O)n(C)c1=O,0.4%,-1.5,-11,0.0,-5,-1
COc1ccc(-c2noc(CN(C(=O)c3ccc(OC(C)=O)cc3)C(C)C)n2)cc1OC,1.5%,1.2,-22,-0.6,-1,-27
CCOC(=O)C(C(C)C)C(N)Cc1ccc(F)cc1 (configuration not stated),1.4%,0.9,-3,-0.6,20,-2
CCCN=Cc1c(CCC)[nH]n(-c2nc3ccccc3s2)c1=O,-1.8%[38.3 µM],-2.0,-7,1.0,3,-13
Cc1ncc(CCl)c2c1OC(C)(C)OC2,-0.8%,-4.1,?,-0.4,-3,9
O=C(O)CCCCCNS(=O)(=O)c1ccc(Cl)cc1,7.3%[38.3 µM],-1.8,-10,-0.5,5,4
Cc1ccc(S(=O)(=O)N(C)C)cc1NC(=O)CN1C(=O)NC2(CCc3ccccc32)C1=O (configuration not stated),-0.5%,-3.5,-5,-0.2,-4,4
O=C(CSc1nc2ccccc2c(=O)n1Cc1ccco1)c1ccc(F)cc1,?,0.5,-16,1.3,4,2
O=C(NC1(C(F)(F)F)C(=O)Nc2c1c(=O)[nH]c(=O)n2Cc1ccccc1)c1ccc(Cl)cc1 (configuration not stated),3.6%,-0.3,6,0.1,10,5
CCCCn1c(-c2cccnc2)nc2cc3[nH]c(=O)c(C(C)C)nc3cc21,0.6%,2.8,1,-0.2,5,-11
Cc1cccc2nc(COc3ccc(Cl)c4cccnc34)cn12,3.4%,-5.9,0,-0.9,-16,-1
COc1cccc(CNC(=O)CSc2nnc3c(n2)[nH]c2ccc(C)cc23)c1,-0.2%,4.9,4,-0.4,5,-2
Cn1ccnc1SCC(=O)Nc1cccc(S(=O)(=O)N2CCCCC2)c1,0.0%,0.7,7,0.2,31,-9

Structural class: the compounds so far with a furan ring, fused or not.
Compound,PINK1 expr mod,D2 agonist,D2 PAM,TRPML1 ag,TRPML1 blocker,Six1-Eya2 inh
COc1cc(/C=C2/SC(=S)N(CC(=O)O)C2=O)ccc1OC(=O)c1ccco1,1.5%,-4.6,-10,-0.3,-8,-19
Cc1ccc(C)c(OCc2nnc(SCC(=O)NC(=O)NCc3ccco3)o2)c1,0.0%,-5.1,-8,-0.7,12,-3
O=C(CSc1nc2ccccc2c(=O)n1Cc1ccco1)c1ccc(F)cc1,?,0.5,-16,1.3,4,2

Carrying on:
Compound,PINK1 expr mod,D2 agonist,D2 PAM,TRPML1 ag,TRPML1 blocker,Six1-Eya2 inh
CCOc1ccc(OCCNC(=O)C(NC(=O)c2c(F)cccc2F)C(C)C)cc1 (configuration not stated),-1.5%,-2.5,-2,-0.3,-2,10
CC(Sc1nnc(CNc2cccc3ccccc23)n1-c1ccccc1)C(=O)N/N=C/c1ccco1 (configuration not stated),1.5%,-2.6,6,0.1,15,0
Cc1noc(C)c1S(=O)(=O)NCc1ccc2c(c1)OCO2,0.0%,-2.1,-3,-0.4,-10,10
CCOc1cc(NC(=S)Nc2ccc(Cl)cc2)c(OCC)cc1NC(C)=O,-1.7%,3.0,1,-0.7,8,-6
CC(C)(C)C(=O)Nc1cc(S(=O)(=O)N2CCCCC2)ccc1N1CCCCC1,4.3%,0.3,-9,2.0,0,-5

Assay outcomes from PubChem.
